# Screens deposited in PubChem BioAssay by National Center for Advancing Translational Sciences (NCATS).
# gsp antagonist: antagonizes gsp, the McCune-Albright syndrome mutation; hit rate 0.4% among 340,000; AID 624288; gsp-mutant cells, cAMP HTRF, 30 min; control for the full effect not named in the record; Potency, µM (doses to about 76.9 µM), for the others: at the top dose activity change, negative = inhibition, actives largely listed as inhibitors; active = falling curve of any shape with a large fitted effect; inconclusive = falling curve, mostly with a smaller effect; inactive = flat or rising curve; cell line not stated here;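 further: intracellular cAMP measured with PDE inhibitor Ro 20-1724 present during compound exposure; potency means the concentration at half of the fitted maximal effect; on the % scale 0 is the no-effect control and ±100 the full control effect; nearly all actives have a fitted effect of over 65% in size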
#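 Measurement of cellular cAMP by homogeneous time-resolved fluorescence following a 30 min compound exposure at 37C. The PDE inhibitor […] was present throughout; the assay buffer was DPBS with 0.05% BSA and 0.005% Tween 20.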
# gsp agonist: activates gsp, the McCune-Albright syndrome mutation; gsp mutant cells, cAMP HTRF, 30 min; control for the full effect not named in the record; Potency, µM (top dose mostly 76.9 µM), without a hit: at the highest dose activation (cAMP increase), usual class: activators; hit rate 0.13% among 340,000; AID 624287; active = well fitted activation curve with a large enough effect; inconclusive = small, poorly fitted or top-dose-only effect, or another doubt; inactive = no such curve, though single readings can be large or run the other way; cell line not stated here;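 further: phosphodiesterase inhibitor Ro 20-1724 added with compounds to block cAMP breakdown; potency means the concentration at half of the fitted maximal effect; nearly all actives have a fitted effect of over 60% in size; about a fifth of the inactives were tested at one dose only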
#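 Cells in DMEM/10% FBS with G418 were pretreated with compounds in DMSO plus […] (300 uM stock) for 30 min at 37C. cAMP was measured by HTRF (cAMP-d2 plus anti-cAMP antibody-K) after 30 min at room temperature.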
# D2 ag: agonists of human D2 dopamine receptor (beta-arrestin). hit rate 0.084% among 360,000. DiscoveRx PathHunter D2 beta-arrestin, luminescence, 90 min; 100% = 57 uM dopamine signal. activation, % (test concentration not listed); in the data active = activation above about 40%; inconclusive = about 15% to 40%; inactive = below about 15%; further: compound concentration not given in the record; the text of the record calls up to 30% inactive
# Target sequence (P14416 whole entry, looked up): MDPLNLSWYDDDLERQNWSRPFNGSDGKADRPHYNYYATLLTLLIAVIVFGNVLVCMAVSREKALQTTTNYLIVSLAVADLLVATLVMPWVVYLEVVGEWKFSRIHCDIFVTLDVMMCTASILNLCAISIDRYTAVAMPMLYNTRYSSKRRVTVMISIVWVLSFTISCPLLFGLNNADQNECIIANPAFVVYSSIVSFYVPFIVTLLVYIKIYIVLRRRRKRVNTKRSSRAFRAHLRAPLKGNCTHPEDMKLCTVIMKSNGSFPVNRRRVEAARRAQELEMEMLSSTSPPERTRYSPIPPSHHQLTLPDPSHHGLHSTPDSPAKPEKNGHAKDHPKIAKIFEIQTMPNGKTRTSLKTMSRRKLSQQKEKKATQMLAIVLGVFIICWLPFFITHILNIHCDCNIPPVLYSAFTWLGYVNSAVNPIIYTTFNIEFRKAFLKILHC
#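 DiscoveRx PathHunter D2 beta-arrestin cells (2,100/well) attached overnight, then compound-stimulated 90 min at 37 C in HBSS/10 mM HEPES/0.1% Tween-20 buffer; beta-galactosidase complementation read by luminescence after 1 h at ambient temperature. Dopamine 57 uM final (EC100) as control.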
# Six1-Eya2 blk: blocks human Six1 binding to Eya2; Q15475+O00167; AlphaScreen GST-Six1/His-Eya2 binding, biochemical; active compounds read low; control for the full effect not named in the record; activity change, % (test concentration not listed); hit rate 0.56% among 360,000; AID 651725; in the data active = activity change below about -65%; inconclusive = about -30% to -65%; inactive = above about -30%; further: on the % scale 0 is the no-effect control and ±100 the full control effect
#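 AlphaScreen luminescence read after one hour at 37 °C in darkness. Pin-transferred compounds met GST-Six1 and His-Eya2 protein (5X stock 250 nM/500 nM) plus glutathione donor and Ni-chelate acceptor beads (5X, 50 ug/mL).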
# CtBP-E1A inh: blocks the CtBP interaction with E1A; activity change, % (no concentration beside the values); hit rate 0.49% among 340,000; AlphaScreen GST-E1A/His-CtBP binding, 1536-well; active compounds read low; control for the full effect not named in the record; in the data active means activity change below about -65%; inconclusive means about -30% to -65%; inactive means above about -30%; further: on the % scale 0 is the no-effect control and ±100 the full control effect
#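 In 5 uL wells, 23 nL compound meets equimolar GST-E1A and His-CtBP (5X stock 125 nM each) for 2 h, 37 °C. Beads (5X, 50 ug/mL) then 1 h, 37 °C, dark.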
# D2 potentiator: positive allosteric modulators of human D2 dopamine receptor. DiscoveRx D2 beta-arrestin cells, luminescence, 90 min; 100% = 57 uM dopamine signal. potentiation, % (concentration not given with the values). hit rate 0.23% among 360,000; active = potentiation of 50% or more; inconclusive = 30% to 50%; inactive = 30% or less;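 further: compound concentration not given in the record; tested on top of an EC20 dose of dopamine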
#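 PathHunter D2 cells, attached overnight at 37 deg C, received compound in DMSO plus dopamine at EC20 (50 nM final) for 90 min at 37 deg C. Beta-arrestin recruitment was read as luminescence after 1 h with detection reagent at ambient temperature.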
# Starred values were filed as active, the others as inactive; ? = inconclusive; . = not tested or not shown; [ ] = another dose, or the depositor's remark.
gsp antagonist	gsp agonist	D2 ag	Six1-Eya2 blk	CtBP-E1A inh	D2 potentiator	canonical_smiles
0%	14%[15.4 µM]	0.9	-21	-2	-2	N#CCC(=O)Nc1ccc(C(=O)OCC(=O)NC(=O)NCc2ccco2)cc1
1%	-8%	1.3	4	-4	10	Cc1ccc2nsnc2c1NC(=O)c1cncc(Br)c1
7%	8%	-4.9	9	2	-1	CCn1c(C)nnc1SCC(=O)NC1CCCCCC1
3%	2%[15.4 µM]	0.0	?	-10	-1	COc1ccc(-c2nc(N)ncc2-c2ccc(OC)c(OC)c2)c(O)c1
4%	-21%	-1.6	3	9	-9	O=C(CCn1c(=S)[nH]c2ccccc2c1=O)NCCCN1CCCC1=O
-10%	8%	-2.9	?	?	-21	N#Cc1nc(COc2ccc(F)cc2)oc1N1CCN(Cc2ccccc2)CC1
0%	-59%[inhibitor]	-1.2	10	3	3	O=C(CC1NCCNC1=O)Nc1ccc2c(c1)OCO2 (stereo not drawn)
-3%	-28%	-4.3	0	2	-7	O=C(NC1CCCCC1)c1ccccc1NC(=O)C1CC(=O)N(c2ccc(Cl)cc2)C1 (stereo not drawn)
0%	7%[15.4 µM]	-1.1	5	2	-10	COc1ccc(C(=O)Nc2ccncc2)c(OC)c1
12%	?	4.9	2	3	-6	O=C(CSc1ccc2nnc(-c3ccccc3)n2n1)NCC1CCCO1 (stereo not drawn)
0%	-1%[15.4 µM]	?	-7	7	53*	COc1ccccc1C/C(N)=N/OC(=O)c1cccs1
5%	-10%[15.4 µM]	0.3	1	1	-4	COC(=O)Cc1[nH]c(Cl)nc1C(N)=O
9%	.	0.2	1	-21	-5	CCCCN1C[C@H](CO)Oc2cccc(F)c2S1(=O)=O
-14%	-39%[inhibitor]	-4.8	8	.	-5	C/C(=N\NC(=O)Cn1c(-c2ccccn2)nc2ccccc21)c1cccc(O)c1
-5%	1%	-1.1	4	2	-2	CCSc1nnc(NC(=O)CCN2C(=O)C3CCCCC3C2=O)s1 (stereo not drawn)
-2%	3%	-3.2	2	1	-6	COc1cccc(NC(=O)[C@@H]2CCCN2C(=O)C2CCN(S(=O)(=O)c3ccc(C)cc3)CC2)c1
-1%	-12%	-3.4	-8	-10	-15	O=C(CN1C(=O)c2ccccc2C1=O)Nc1sc2c(c1C(=O)NCc1ccco1)CCCC2
-12%	13%	3.6	-1	3	-2	CCCCC1CCC(C(=O)Nc2ccc(N3CCOCC3)cc2N2CCOCC2)CC1 (stereo not drawn)
17%	15%	-4.4	-4	14	-13	CC(C)(C)c1nc(C(C)(C)C)c(Br)c(=O)[nH]1
6%	15%	1.4	-4	-5	-5	CC1CN/C(=C\C(=O)c2ccc(Cl)cc2)C(=O)N1 (stereo not drawn)
-7%	21%[15.4 µM]	-3.9	5	9	-3	Cc1ccc(S(=O)(=O)N2CCOCC2)cc1C(=O)OC(C)C(=O)c1ccccc1 (stereo not drawn)
1%	14%	3.0	-11	0	-2	C[C@@]12CCC[C@@](C)(C(=O)O)C1CC[C@@]13C[C@@H](NCc4ccccc4)[C@@](C)(CCC12)C3 (stereo partly drawn)
3%	-3%	-6.5	3	0	-3	CC(CNC(=O)c1ccc(NC2=NC3CS(=O)(=O)CC3S2)cc1)c1ccccc1 (stereo not drawn)
.	?	-7.9	0	3	2	CCCCCCN1C[C@H](n2cc(-c3ccc(F)cc3)nn2)[C@@H](O)C[C@@H]1c1ccccc1
1%	?	2.5	7	6	-3	O=C(O)C1C2C=CC(C2)C1C(=O)Nc1cccc(C(=O)N2CCCCC2)c1 (stereo not drawn)
-1%	8%[15.4 µM]	?	-19	-6	-3	Cc1ccccc1C(=O)NCC(c1ccco1)N1CCc2ccccc21 (stereo not drawn)
-10%	-41%[inhibitor]	-1.2	5	7	-14	CCc1nccn1-c1cc(C(C)(C)C)nc2c(-c3ccc(Cl)cc3)cnn12
2%	-15%[15.4 µM]	-5.4	7	4	-10	C/C(=N\NC(=O)c1cc(-c2cccc([N+](=O)[O-])c2)n[nH]1)c1ccc(F)cc1
6%	18%	0.1	0	-9	1	CC(C)C(C)NC(=O)CN1C(=O)NC2(CCc3ccccc32)C1=O (stereo not drawn)
-5%	-4%[15.4 µM]	-7.5	2	-12	-6	Cc1ccc(S(=O)(=O)C2(S(=O)(=O)c3ccc(C)cc3)CC2)cc1
17%	-12%[15.4 µM]	-0.1	0	-6	11	Cc1nnc(SCC(=O)Nc2ccccc2)n(N)c1=O
2%	5%	-0.3	6	-7	0	CCn1c(SCC(=O)C(C)(C)C)nnc1-c1cccnc1
-3%[15.4 µM]	8%	-2.5	-3	-12	-11	CCC(=O)n1nc(NCc2ccccc2OC)nc1NCc1ccccc1OC
10%	2%	-3.4	8	0	-7	O=c1[nH]cnc2c1nc(NCc1ccccc1)n2C1O[C@@H](CO)[C@H](O)[C@@H]1O (stereo partly drawn)
.	?	-0.6	2	5	-5	O=C(COC(=O)c1cc(S(=O)(=O)N2CCOCC2)ccc1F)Nc1ccccc1C(F)(F)F
-1%	27%	-5.8	-4	3	-3	Nc1nc(-c2ccccc2)c(-c2ccccc2)n1N

# An excerpt from above, reduced to gsp antagonist and D2 ag.
smiles	gsp antagonist	D2 ag
Nc1nc(-c2ccccc2)c(-c2ccccc2)n1N	-1%	-5.8
CCc1nccn1-c1cc(C(C)(C)C)nc2c(-c3ccc(Cl)cc3)cnn12	-10%	-1.2
Cc1ccccc1C(=O)NCC(c1ccco1)N1CCc2ccccc21 (stereo not drawn)	-1%	?

# Carrying on:
gsp antagonist	gsp agonist	D2 ag	Six1-Eya2 blk	CtBP-E1A inh	D2 potentiator	canonical_smiles
2%	10%	-4.9	2	6	-12	Cn1nc(C(F)(F)F)c(-c2ccc(Br)cc2)c1NC(=O)c1ccco1
-9%	-3%	-1.4	0	8	-5	CCn1c(SCC(=O)NCc2ccccc2)nc2ccccc2c1=O
-1%	6%	-1.2	-17	-15	-3	CC1Cc2nc(SCC(=O)Nc3ccc4c(c3)OCO4)n(Cc3ccccc3)c(=O)c2S1 (stereo not drawn)
6%	-10%	4.4	9	.	-10	CC(C)=CCN1CCN(Cc2nc(-c3ccccc3)cs2)CC1CCO (stereo not drawn)
-1%	-18%	-2.6	15	7	18	COC(=O)[C@H](C)NC(=O)Nc1cccc(C(F)(F)F)c1
-9%	24%	-0.7	3	2	-16	COC(=O)C1=C(C)NC(C)=C(C(=O)OC)C1C(=O)OCc1nnc(-c2ccccc2)o1
15%	?	3.5	0	187	9	O=C(NCc1nnc2c(C(F)(F)F)cc(Cl)cn12)c1ccc2c(c1)OCO2
2%	-4%[15.4 µM]	-1.1	21	31	2	Cc1noc(C)c1-c1nc(CSc2ccc(Cl)cc2)no1
7%	-10%[15.4 µM]	1.4	-2	-2	1	O=C(CCn1cnnn1)Nc1ccccc1F
-3%	.	0.5	0	2	-9	Cc1csc(NC(C)c2nc3cc(C(F)(F)F)ccc3n2CCOCCO)n1 (stereo not drawn)
3%	-46%[inhibitor]	-9.6	0	-3	-50	CCCn1nnc(NC(=S)NC(=O)c2cccs2)n1
3%	17%	-1.2	-9	.	3	C#CCn1c(=NC(=O)CSCC(=O)N2CCOCC2)sc2ccccc21
7%	-7%	-4.8	-3	12	13	Cn1nnc2cc(C(=O)NCc3ccco3)ccc21
?	6%	2.9	-11	-6	-5	CCOC(=O)c1ccc(NC(=O)c2cn(-c3ccccc3)nc2-c2ccncc2)cc1
-5%	-21%	-0.2	-1	8	4	Cc1cccc(N(C)C(=O)COc2cc(=O)n(C)c3ccccc23)c1
-10%	-26%	-4.2	4	1	-1	CCOc1ccc(CCN2C(=O)c3ccc(C(=O)O)cc3C2=O)cc1OCC
-1%	0%	-2.4	4	-21	0	Cn1c(=O)oc2cc(S(=O)(=O)N3CCC(C(=O)NCc4ccccc4)CC3)ccc21
9%	3%	-3.2	0	3	0	Cc1cccc(N2CCN(CC(=O)Nc3ccc(-n4cnnn4)cc3)CC2)c1C
-1%	.	-4.0	-9	0	-10	NC(=O)CC(NC(=O)c1ccc(Br)cc1)c1ccc(NCc2ccc(F)c(F)c2)c([N+](=O)[O-])c1 (stereo not drawn)
-7%	-32%[inhibitor]	1.7	11	2	-3	O=C(Cn1ccc2ccccc2c1=O)NCCC(=O)N1CCCCC1
3%	6%	-3.3	0	6	-10	N#Cc1nc(-c2ccco2)oc1NCCN1CCOCC1
-9%	9%[15.4 µM]	-0.2	-1	-7	-5	O=C(CCCOc1ccccc1)Nc1cccc([N+](=O)[O-])c1
0%	6%[15.4 µM]	-2.1	-3	-1	-9	Cc1ccc(S(=O)(=O)N(CC(=O)NCc2ccccn2)c2ccc(Cl)cc2)cc1
2%	-31%[inhibitor]	-2.7	3	-7	-3	CN(C)c1nc(OCCNC(=O)COc2ccccc2Cl)nc(N(C)C)n1
2%	-3%[15.4 µM]	1.3	-1	-2	-16	Cn1cc(CN2CCc3c([nH]c4ccccc34)C2C2CCCCC2)cn1 (stereo not drawn)
7%	-33%[inhibitor]	-5.4	8	0	3	COc1ccccc1NC(=S)NC(=O)Cc1ccc(Cl)cc1
-7%	.	6.0	-8	-2	10	CCCCC1=CC2=CC(=O)C(C)(OC(=O)CC)C(=O)C2=CN1CCc1ccc(Br)cc1 (stereo not drawn)
-13%	25%	-0.1	4	2	1	CCCn1c(=NC(=O)c2ccncc2)c(C#N)cc2c(=O)n3cccc(C)c3nc21
-6%	-77%[inhibitor]	-5.3	-9	25	-35	Cc1c(Cl)c([N+](=O)[O-])nn1CCCC(=O)Nc1cccc(Cl)c1
3%	-22%	-3.7	7	-2	-1	COc1ccc(C(=O)NCC(c2ccccc2)N2CCCC2)cc1S(=O)(=O)N1CCOCC1 (stereo not drawn)
3%	-3%[15.4 µM]	0.4	-1	1	3	CC1CCc2nc3ccccc3c(C(=O)OCC(=O)N(C)C3CCS(=O)(=O)C3)c2C1 (stereo not drawn)
-14%	-8%[15.4 µM]	-2.1	-7	-7	2	O=c1[nH]c(C2CCN(S(=O)(=O)c3ccc(S(=O)(=O)NC4CC4)cc3)CC2)nc2c1nnn2Cc1ccccc1
-5%	14%	1.8	0	-1	-1	Cc1ccc(-c2noc(C3CCCN(C(=O)c4ccccc4Br)C3)n2)o1 (stereo not drawn)
-17%	10%	0.6	-3	-3	-10	CCOc1cc(C)c(Cl)cc1S(=O)(=O)n1cnc2ccccc21

# In the list so far, these contain a tert-butyl group.
gsp antagonist	gsp agonist	D2 ag	Six1-Eya2 blk	CtBP-E1A inh	D2 potentiator	canonical_smiles
17%	15%	-4.4	-4	14	-13	CC(C)(C)c1nc(C(C)(C)C)c(Br)c(=O)[nH]1
-10%	-41%[inhibitor]	-1.2	5	7	-14	CCc1nccn1-c1cc(C(C)(C)C)nc2c(-c3ccc(Cl)cc3)cnn12
2%	5%	-0.3	6	-7	0	CCn1c(SCC(=O)C(C)(C)C)nnc1-c1cccnc1
